ALR inh: blocks human ALR sulfhydryl oxidase activity | inhibition, % (concentration not given with the values) | purified ALR, DTT oxidation, H2O2 HRP-luminol luminescence | P55789 | AID 485317 | 290,000 compounds, 3.8% hits;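 active = mean and each replicate at 75% or more; inconclusive = only one of the two met; inactive = neither met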;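 note: stock transfer was 7.5 nL into about 7.5 µL; 0% = neutral wells and 100% = wells with inactivated enzyme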
Target sequence (P55789 whole entry, looked up): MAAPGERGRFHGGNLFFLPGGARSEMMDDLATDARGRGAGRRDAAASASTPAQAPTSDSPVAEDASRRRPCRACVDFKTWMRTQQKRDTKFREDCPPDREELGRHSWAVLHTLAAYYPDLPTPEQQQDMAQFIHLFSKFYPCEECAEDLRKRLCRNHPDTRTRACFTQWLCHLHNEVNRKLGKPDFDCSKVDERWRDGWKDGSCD
Beta cell apopt: beta cell apoptosis inhibition | INS-1E cytokine-induced death, ATP luminescence, 48 h; percent of positive-control rescue, neutral wells zero | protection from apoptosis, % (concentration not given with the values) | 300,000 compounds, 0.8% hits | AID 435005;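 active = all replicates at 75% or more, or half of them and the mean; inconclusive = half reach 75% but not the mean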;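 note: 0% = cytokine-treated negative control wells and 100% = positive control rescue; higher means more ATP so stronger rescue from cytokine killing; wells of about 40 µL received 100 nL stock; the first replicate is given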
AF4-AF9 inh: blocks AF4 peptide binding to human AF9; AlphaScreen, biotin-AF4 peptide binding to FLAG-AF9; inhibition, % at 10 µM; 350,000 compounds, 0.47% hits;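 active = every replicate reaching a set inhibition limit, whatever the replicate mean, cut at about 25% in these data; inconclusive = mean inhibition reaches that limit but some replicates miss it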;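 note: 0% = plate neutral control median and 100% = total signal loss; the record names both 10 and 1 µM as test concentration; the first replicate is given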
Target sequence (P42568 whole entry, looked up): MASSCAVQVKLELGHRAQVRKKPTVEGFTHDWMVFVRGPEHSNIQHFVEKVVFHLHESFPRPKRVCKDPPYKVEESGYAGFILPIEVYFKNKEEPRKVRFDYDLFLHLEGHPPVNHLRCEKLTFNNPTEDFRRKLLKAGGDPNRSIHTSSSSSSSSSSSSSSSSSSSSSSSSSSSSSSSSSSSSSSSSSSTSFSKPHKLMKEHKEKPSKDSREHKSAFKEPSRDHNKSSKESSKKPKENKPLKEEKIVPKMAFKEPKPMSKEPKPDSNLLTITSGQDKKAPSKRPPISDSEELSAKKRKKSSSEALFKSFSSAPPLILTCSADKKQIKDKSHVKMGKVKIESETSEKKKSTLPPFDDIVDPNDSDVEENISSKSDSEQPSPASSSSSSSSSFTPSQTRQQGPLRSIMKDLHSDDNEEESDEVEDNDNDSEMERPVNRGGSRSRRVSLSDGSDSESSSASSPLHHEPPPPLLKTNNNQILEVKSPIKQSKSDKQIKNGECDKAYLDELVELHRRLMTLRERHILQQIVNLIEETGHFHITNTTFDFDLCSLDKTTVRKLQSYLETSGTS
T cruzi repl: blocks replication of Trypanosoma cruzi | inhibition, % (concentration not given with the values) | 300,000 compounds, 1.4% hits | T. cruzi beta-gal in NIH3T3, luminescence, 90 h;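 active = mean inhibition across valid replicates above about 55%, limit read from the data; inconclusive = mean below that limit but half or more replicates reach it; inactive = mean below it, under half of replicates reach it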;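 note: signal also drops with host cell toxicity which is not excluded here; 0% = plate median of DMSO wells and 100% = zero luminescence signal; higher percent means less beta-gal luminescence so fewer parasites; stock transfer was 50 nL into about 50 µL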
FGF22 binding: shifts melting point of recombinant human FGF22; recombinant FGF22 thermal shift, SYPRO orange fluorescence; percent of sucrose octasulfate shift, DMSO zero; calls only at 9.99 µM; 340,000 compounds, 1.5% hits; AID 651658;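 active = melting point raised past a set limit in the mean and every replicate; inconclusive = no clear call; three in four hits are not shown here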
Target sequence (Q9HCT0 whole entry, looked up): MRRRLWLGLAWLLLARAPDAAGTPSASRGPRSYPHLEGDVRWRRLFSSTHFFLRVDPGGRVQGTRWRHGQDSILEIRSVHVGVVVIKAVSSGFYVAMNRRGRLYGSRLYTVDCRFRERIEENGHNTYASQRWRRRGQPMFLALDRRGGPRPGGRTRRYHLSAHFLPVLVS
RanGTP-Imp inh: disruptors of Ran-importin-beta complex formation – biochemical, FRET, CFP-Ran, YFP-importin-beta, homogeneous, primary screen; inhibition, % (no concentration beside the values); 300,000 compounds, 1.1% hits; cell-free CFP-Ran/YFP-importin-beta FRET ratio; AID 2216;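 active = most replicates above 15%; inconclusive = exactly half above 15%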;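 note: 0% = DMSO wells and 100% = Ran loaded with GDP instead of GTP; wells of about 40 µL received 100 nL stock; the first replicate is given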
Calb FLC: C. albicans growth modulation with fluconazole; growth inhibition, % (no concentration beside the values); C. albicans CaCi-2 (fluconazole-resistant clinical isolate) + fluconazole, Alamar Blue growth, 48 h; 300,000 compounds, 0.57% hits;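 active = most replicates above 75%; inconclusive = exactly half above 75%; inactive = most below 75%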;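 note: all wells also contain fluconazole at 8 µg/ml as a sub-toxic cotreatment; 0% = median of DMSO wells and 100% = median of geldanamycin control wells; wells of about 8 µL received 7.5 nL stock; the first replicate is given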
rRNA inh HTS: inhibits bacterial ribosomal RNA function over humanized ribosomes; 350,000 compounds, 1.6% hits; AID 720706; E. coli WT GFP vs humanized-ribosome RFP mutants, fluorescence, 24 h; active compounds read low; DMSO median 0, no signal -100; GFP signal change (wild-type ribosome), % (no concentration beside the values);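 active = significant combined selectivity score with lowered wild-type GFP, culture density cut under 30%, mutant RFP and density less affected; inactive = any of these conditions unmet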; note: one replicate is shown; some compounds called inactive have numbers as strong as hits
rRNA inh HTS OD600: second read-out of rRNA inh HTS, no call of its own (marks repeat the call); OD600 change, %; measured here: OD600 growth;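 optical density of the mix in the first replicate; 0 = DMSO median and -100 = no signal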
rRNA inh HTS RFP: also measured in rRNA inh HTS; calls as there; RFP signal change, %; measured here: RFP humanized mutant strains;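 first replicate; 0 = DMSO median and -100 = no signal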
The depositor's hits bear a star; i = inactive; ? = inconclusive; · = not tested or not shown.

SMILES	ALR inh	Beta cell apopt	AF4-AF9 inh	T cruzi repl	FGF22 binding	RanGTP-Imp inh	Calb FLC	rRNA inh HTS	rRNA inh HTS OD600	rRNA inh HTS RFP
COc1ccccc1NS(=O)(=O)c1cccc(C(=O)N/N=C(\C)c2cccnc2)c1	1	6	-3.2	·	i	·	·	8	8	-1.6
O=C(NCc1ccccn1)C1CCN(S(=O)(=O)c2ccc(Br)cc2)CC1	-13	·	-2.5	-5	i	5.1	4	5	7	1.1
CSc1ccc(NC(=O)N2CC(C)OC(C)C2)cc1 (stereo not drawn)	-2	·	·	5	·	-0.7	-16	·	·	·
Cc1c(C(=O)Nc2ccc(N3CCOCC3)cc2)cccc1[N+](=O)[O-]	1	-5	-1.6	-6	i	3.6	-19	8	6	-6.8
CC(=O)Oc1cccc(/C=c2\sc3nc(-c4ccco4)nn3c2=O)c1	-5	-5	·	-14	·	3.8	-3	·	·	·
C=CCn1c(COc2ccc(F)cc2)nnc1SCC(=O)NC1CC1	33	-7	-2.4	-3	i	4.5	-20	3	5	0.6
C/C(=N\NC(=O)c1ccc(OC2CCCC2)cc1)c1ccc(O)cc1	43	·	-4.4	3	i	3.6	-4	-12	-13	-1.1
NNC(=O)Cn1nc(Cc2ccccc2)n(N)c1=O	38	-3	0.4	·	i	·	·	11	17	-1.0
O=C(c1ccc(N2CCCCC2)c([N+](=O)[O-])c1)N(Cc1ccccc1)c1ccccn1	-3	19	·	46	·	0.2	?	·	·	·
CC(C)c1ccc(NC(=O)C2CCCN(S(=O)(=O)c3ccc4c(c3)C(C)(C)C(=O)N4C)C2)cc1 (stereo not drawn)	2	0	-0.3	24	i	?	-3	5	-12	1.6
O=C(c1cc2ccccc2[nH]1)N(Cc1cccnc1)CC1CCCN(C2CCCCC2)C1 (stereo not drawn)	-28	-3	3.0	18	i	-1.3	-4	4	1	0.9
CCC1=C(OC(=O)N(CC)CC)N2C(=O)OC(=NCCc3c[nH]c4ccccc34)[C@]2(Cc2ccccc2)[C@H]2C1=CC[C@H]1C(=O)N(C)C(=O)[C@H]12	-16	8	11	1	i	-0.6	56	8	10	-4.2
COc1ccc(Cl)cc1NC(=O)C(C)OC(=O)C1=NNC(=O)CC1 (stereo not drawn)	-2	1	0.7	·	i	·	·	-2	-14	2.2
O=C(O)c1nn(CCOc2cccc(Br)c2)c(=O)c2ccccc12	-3	·	-3.7	0	i	1.2	0	-6	-22	5.0
CCCCCCCC1(C)NC(=O)N(c2ccccc2)N1 (stereo not drawn)	26	-4	·	8	·	3.0	13	·	·	·
Cn1c(SCc2ccccn2)nc2c1c(=O)[nH]c(=O)n2C	-2	3	-19	-4	i	-0.1	-3	11	6	-1.3
C/C(=N\NC(=S)Nc1ccccc1C)c1cc2ccccc2o1	-9	78*	-1.2	59*	i	0.3	26	-13	-9	0.4
CCC(C)(C)c1nnc(NC(=O)CCC2CCCCC2)s1	11	-5	8.9	-17	i	8.7	2	5	3	2.2
CCC1C(=O)Nc2ccccc2N1C(=O)COc1ccccc1 (stereo not drawn)	-2	0	-0.8	2	i	-5.7	0	0	0	0.4
CCC1CN(C(=O)N2CCC(C(=O)NCCc3ccc(OC)c(OC)c3)CC2)c2ccccc2O1 (stereo not drawn)	2	2	2.6	5	i	2.7	11	9	6	-0.2
CCCCN(CCCC)C(=S)NC(=O)C(C)(C)C	-4	-1	·	-12	·	?	1	·	·	·
COc1cc(NC(=O)C(Cc2ccccc2)n2cccc2)cc(OC)c1 (stereo not drawn)	0	2	2.3	-1	i	-3.2	-3	5	-9	-2.2
O=C(CSc1ccccc1F)OCC(=O)N1CCN(C(=O)c2ccco2)CC1	3	-11	-6.9	-12	i	-1.8	1	2	6	1.4
COCc1cc(=O)[nH]c(N2CCN(Cc3ccc4c(c3)OCO4)CC2)n1	-31	-1	-13	-2	i	8.3	13	17	10	8.3
CC(=O)c1c(C)[nH]c(C(=O)NCCc2ccccc2)c1C	100*	-11	·	4	·	-0.2	8	·	·	·
O=C(NNC(=S)NC(=O)c1ccc(F)cc1)c1cccnc1	98*	3	0.6	1	i	4.6	0	-4	-27	1.4
CC(C)C(=O)Nc1ccc(Cc2ccc(NC(=O)C(C)C)c(O)c2)cc1O	50	-4	·	-1	·	-3.0	-8	·	·	·
CCOC(=O)/C(C#N)=C/C1=C(N2CCOCC2)CC(C)(C)OC1	·	-5	-3.0	1	i	0.4	2	3	6	1.7
CCOC(=O)C1=C(C)N=C(/N=C/N(C)C)SC1c1ccccc1 (stereo not drawn)	8	·	-2.9	43	i	2.4	3	-7	-7	-3.7
CCCCOc1ccc(/C=N/NC(=S)Nc2cc(C)ccc2C)cc1	-12	8	·	34	·	-0.6	3	·	·	·
CC(C)c1ccc(NC(=O)COC(=O)[C@@H]2CCCN2C(=O)c2cccs2)cc1	11	-2	0.0	·	i	·	·	-5	-2	3.7
CCN1C(=O)[C@H]2[C@@H](c3ccc(C)cc3)N3C(=O)N(c4ccc(C(F)(F)F)cc4)C(=O)[C@@]3(CC)[C@H]2C1=O	·	2	0.5	-16	i	1.4	4	11	7	6.5
COc1ccc(Nc2cc(C)nc3nc(C)nn23)c(OC)c1	-7	2	-2.4	-6	i	2.9	12	6	12	0.8
COc1ccc(CNC2=CC(=O)CC(C)(C)C2)cc1	1	-5	·	-16	·	-11	-14	·	·	·
O=C(O)c1ccc(N=Nc2c(O)[nH]c3cc(Cl)ccc23)cc1	-4	3	4.6	-11	i	-8.8	1	-5	-9	-2.4
S=C(NC1CCCCC1)NN(c1ccccc1)c1ccccc1	6	·	3.7	24	i	2.3	-41	-26	-34	-9.8
COc1ccc(S(=O)(=O)Nc2cc(C)nn2-c2ccccc2)cc1	·	-7	·	5	·	2.4	3	·	·	·
N/C(=N\OC(=O)C1CCCCC1)c1cccc(Br)c1	4	-2	·	-11	·	?	-12	·	·	·
CCC(=O)Nc1ccc(S(=O)(=O)N2CCc3ccccc32)cc1	-6	-4	0.3	24	i	0.7	9	-20	-25	-1.7
COc1cc(/C=N/Nc2ccccn2)cc(OC)c1O	99*	-5	4.6	37	·	1.8	-7	17	15	1.6
CCOC(=O)CCNC(=O)N1CCCC(Cc2ccccc2)(C(=O)OCC)C1 (stereo not drawn)	·	·	-0.2	-5	i	-1.9	4	9	12	-0.5
c1ccc(-n2c(SCc3nc(-c4cccs4)no3)nnc2-c2ccco2)cc1	3	-7	6.9	0	i	1.3	6	-22*	-11*	5.3*
CN1C2Cc3c(n(C)c4ccccc34)C1CC=C2CO (stereo not drawn)	12	-1	-2.5	·	i	·	·	6	3	-0.2
CC(NC(=O)CCNC(=O)c1ccc(Br)cc1)c1ccc(-n2ccnc2)cc1 (stereo not drawn)	-14	1	0.4	-1	i	?	-3	0	-4	-1.1
O=C(CSc1nnc2c(Cl)cc(Cl)cn12)N1CCOCC1	0	-4	-34	-5	i	2.2	-8	17	5	-5.6
Cc1ccc(NC(=O)/C(C#N)=C/c2cn(CC(=O)NCc3ccco3)c3ccccc23)cc1C	1	22	-2.9	-44	i	-0.2	-2	18	10	3.6
O=P(OC1CCCCC1)(OC1CCCCC1)C(O)c1ccccc1 (stereo not drawn)	2	-5	·	1	·	8.8	-5	·	·	·
O=C(c1ccc(-n2cncn2)c([N+](=O)[O-])c1)N1CCN(S(=O)(=O)c2ccc(Cl)cc2)CC1	-6	1	0.5	13	i	-1.1	6	·	·	·
Cc1ccc(CNC(=O)CN(C(=O)N2CCN(C)CC2)S(=O)(=O)c2ccc(C)cc2)cc1	·	-4	-0.9	1	i	-0.6	-3	13	13	-0.1
Clc1cc(Sc2ccc(Br)cc2)nnc1-c1ccccc1	·	7	·	19	·	4.9	2	·	·	·
Nc1nc(SCC(=O)c2cc(F)ccc2F)n[nH]1	50	5	-0.9	-6	i	0.5	19	12	10	1.9
CCCC(=O)OC(C(=O)Nc1cc(C(F)(F)F)ccc1Cl)c1ccccc1 (stereo not drawn)	2	3	-1.1	6	i	-2.0	0	-5	-5	0.9
CCOC(=O)c1sc2nc(C3CC3)cc(-c3ccc(OC)cc3)c2c1N	0	-4	·	9	·	3.3	-3	·	·	·
O=C(CSc1ccccc1C(=O)NCc1ccccc1)NC12CC3CC(CC(C3)C1)C2	-6	7	·	4	·	3.1	5	·	·	·
COC(=O)c1cccc(N2C(=O)C(Cl)=C(N3CCOCC3)C2=O)c1	·	-8	·	-21	·	2.2	-8	·	·	·
CCn1c(SCC(N)=O)nnc1-c1ccco1	0	-6	·	-11	·	-0.1	-5	·	·	·
COc1ccc(C(=O)Nc2cccc(-c3ccc(N4CCOCC4)nn3)c2)cc1	·	13	-2.8	3	i	-2.9	20	-8	-2	-1.5
Cc1cc(C(=O)Nn2cnnc2)cs1	7	-8	·	-3	·	6.8	4	·	·	·
COc1ccc(S(=O)(=O)N2CCC(C)CC2)cc1N(C)S(=O)(=O)c1ccccc1	-4	-13	0.1	14	i	-4.1	0	13	12	0.5
CCOC(=O)c1ccc(NC(=O)CC2C(=O)N(c3ccc(F)cc3)C(=O)N2CCC(C)C)cc1 (stereo not drawn)	-1	3	·	29	·	-3.3	?	·	·	·

(further entries)
SMILES	ALR inh	Beta cell apopt	AF4-AF9 inh	T cruzi repl	FGF22 binding	RanGTP-Imp inh	Calb FLC	rRNA inh HTS	rRNA inh HTS OD600	rRNA inh HTS RFP
O=C(CN1C(=O)NC2(CCOc3ccccc32)C1=O)NCc1ccc(F)cc1 (stereo not drawn)	-3	1	-0.3	·	i	·	·	3	10	0.4
C=CCn1c(SCc2ccc3c(c2)OCO3)nc2scc(-c3ccco3)c2c1=O	-2	3	·	-16	·	1.0	?	·	·	·
CC(C)Cc1cc(C(=O)Nc2cccc(O)c2)no1	19	2	0.2	-12	i	-0.6	1	-11	-8	-3.7
Cc1ccccc1N(CC(=O)NCCSCc1ccco1)S(C)(=O)=O	-5	·	-45	4	i	8.4	-2	7	4	1.8
Cn1c(SCC(=O)Nc2ccccc2)nnc1-c1ccc(NC(=O)CCc2ccccc2)cc1	-5	0	·	-5	·	-0.2	-3	·	·	·
CC(C)(C)c1ccc(C(=O)N2CCN(C(=O)C3CCCCC3)CC2)cc1	-1	1	0.1	3	i	-0.9	-9	-1	-2	-0.4
O=C(COc1ccc(Cl)cc1)NCc1nnc2c3ccccc3c(-c3ccccc3)nn12	11	5	·	41	·	-0.9	62	·	·	·
NC(=O)CSc1cn(Cc2ccccc2)c2ccccc12	6	-1	-1.6	18	i	-2.1	5	-31	-38	-3.9
CC(C)CC(NC(=O)C1CCC(C)CC1)C(=O)Nc1ccc2c(c1)OCCO2 (stereo not drawn)	-2	-1	0.2	2	i	3.7	-21	1	6	-1.7

These rows are one share of the data. The share of hits here may be higher or lower than overall.
